# Source: PubChem
# Vaccinia inh: blocks a specific stage of Vaccinia orthopoxvirus infection. activity change (mCherry), % (concentration not given with the values). actives 0.01% (n = 89,000). AID 1053133. Vaccinia-infected cells, mCherry/Venus stage reporter fluorescence; active compounds read low; some inactives read as strong as hits;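 active means mCherry past -33% and 40 or more points under the early reporter, replicates agreeing; inconclusive means past -33% without that gap or agreement; tested in A549 cells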;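 further: scaled between vehicle wells and reference inhibitor wells; 23 nL library stock went into each well; one replicate is shown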
# Vaccinia inh Venus: also measured in Vaccinia inh; calls as there; activity change (Venus), %; measured here: Venus reporter, other viral stage;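 negative = less Venus signal; first of two replicates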
# * marks the source's active call; other numbers are inactive results; ? = inconclusive; . = not tested or not shown. The list is partial. The share of hits here may be higher or lower than overall.
SMILES,Vaccinia inh,Vaccinia inh Venus
O=C(C[C@H]1C=C[C@H](NS(=O)(=O)c2ccccc2F)[C@H](CO)O1)NCCCN1CCOCC1,17.6,11.7
CO[C@H](CN(C)S(=O)(=O)c1ccc(F)cc1)[C@@H](C)CN([C@@H](C)CO)S(=O)(=O)c1cccc(Cl)c1,-11.1,-2.1
C[C@H]1CN([C@@H](C)CO)C(=O)Cc2cc(NC(=O)CCN3CCOCC3)ccc2O[C@H]1CN(C)Cc1ccc(C(=O)Nc2ccccc2N)cc1,-7.0,0.1
C[C@@H]1CN([C@H](C)CO)C(=O)Cc2cc(NC(=O)CCN3CCOCC3)ccc2O[C@@H]1CN(C)C(=O)Nc1ccc2c(c1)OCO2,12.8,7.5
O=C(c1ccc(F)cc1)N1C[C@H]2[C@@H](c3ccccc31)[C@H](CO)N2C(=O)c1ccccc1,20.6,16.9
CCCC#Cc1cnc2c(c1)C(=O)N([C@@H](C)CO)C[C@@H](C)[C@@H](CN(C)C(=O)Nc1ccccc1OC)O2,-13.9,-13.1
CO[C@H]1O[C@H](CO)[C@@H](OC(=O)c2ccc(Br)cc2)[C@H](OC(=O)c2cc3ccccc3[nH]2)[C@H]1OC(=O)c1cc2ccccc2[nH]1,-24.4,-20.8
CO[C@H]1CN(C)C(=O)c2cc(NS(C)(=O)=O)ccc2OC[C@H](C)N(Cc2nccs2)C[C@H]1C,6.1,-6.0
O=C(Nc1ccc2c(c1)OCO2)N[C@@H]1CC[C@H](CCNC(=O)C2CCOCC2)O[C@H]1CO,1.2,4.8
C[C@H](CO)N1C[C@H](C)[C@H](CN(C)Cc2ccc(C(F)(F)F)cc2)Oc2ccc(NS(=O)(=O)c3cn(C)cn3)cc2CC1=O,-3.5,-3.2
OC[C@H]1Nc2ccc(-c3ccccc3)cc2[C@H]2[C@@H]1CCN2Cc1ccc(F)cc1,-49.6*,19.1*
Cn1cnc(S(=O)(=O)N2CC[C@@H]3[C@H](CO)Nc4ccc(C#Cc5ccc(F)cc5)cc4[C@@H]32)c1,2.1,3.9
COc1cccc(-c2ccc([C@@H]3[C@H](CO)N4CCCCN(C(=O)c5ccc(F)cc5)C[C@@H]34)cc2)c1,?,.
CCCC#Cc1ccc([C@H]2[C@@H](CO)N3C(=O)CN(S(=O)(=O)c4ccccc4C)C[C@@H]23)cc1,?,.
O=C(C[C@H]1C=C[C@H](NC(=O)Nc2ccccc2)[C@@H](CO)O1)NCc1ccccn1,7.7,5.1
C[C@H](CO)N1C[C@H](C)[C@@H](CN(C)C(=O)Nc2ccc(-c3ccccc3)cc2)OCc2ccccc2-c2ccccc2C1=O,?,.
Cc1noc(C)c1S(=O)(=O)N(C)C[C@@H]1OCCCC[C@@H](C)Oc2ccc(NC(=O)Cc3ccccc3)cc2C(=O)N([C@@H](C)CO)C[C@H]1C,-34.4,-26.1
CCCNC(=O)[C@@H]1[C@@H](CO)[C@@H]2Cn3c(cccc3=O)[C@H]1N2C(=O)Nc1cc(F)ccc1F,14.6,7.4
COc1ccc(S(=O)(=O)Nc2ccc3c(c2)C(=O)N([C@H](C)CO)C[C@H](C)[C@H](CN(C)S(=O)(=O)c2ccc(C)cc2)O3)cc1,-4.3,1.6
COc1ccc(NC(=O)N(C)C[C@@H]2OCc3ccccc3-c3c(n(C)c4ccccc34)C(=O)N([C@H](C)CO)C[C@@H]2C)cc1,-11.3,-12.8
CCS(=O)(=O)Nc1ccc2c(c1)C(=O)N(C)[C@@H]1CC[C@H](CC(=O)Nc3ccccc3)O[C@H]1CO2,-5.3,-4.6
CO[C@@H]1CN(C)C(=O)c2cc(NC(=O)c3cc(C)on3)ccc2OC[C@@H](C)N(S(=O)(=O)c2cccc(C)c2)C[C@H]1C,-19.3,-4.0
C[C@H](CO)N1C[C@H](C)[C@@H](CN(C)C(=O)Cc2cccnc2)Oc2ncc(-c3ccncc3)cc2C1=O,-4.5,1.7
CCCNC(=O)[C@@H]1[C@@H](CO)[C@@H]2Cn3c(ccc(-c4ccc(F)cc4)c3=O)[C@H]1N2CC,6.8,10.4
C[C@H]1CN([C@@H](C)CO)C(=O)c2cc(NC(=O)Cc3ccccc3)ccc2O[C@@H]1CN(C)S(=O)(=O)c1cccs1,-5.1,-6.7

# Profiles, quoted from the list.
# O=C(C[C@H]1C=C[C@H](NC(=O)Nc2ccccc2)[C@@H](CO)O1)NCc1ccccn1 is entered as Vaccinia inh = 7.7; Vaccinia inh Venus = 5.1
# CCCNC(=O)[C@@H]1[C@@H](CO)[C@@H]2Cn3c(cccc3=O)[C@H]1N2C(=O)Nc1cc(F)ccc1F is entered as Vaccinia inh = 14.6; Vaccinia inh Venus = 7.4
# COc1cccc(-c2ccc([C@@H]3[C@H](CO)N4CCCCN(C(=O)c5ccc(F)cc5)C[C@@H]34)cc2)c1 is entered as Vaccinia inh = ?; Vaccinia inh Venus = .

# (list continues)
SMILES,Vaccinia inh,Vaccinia inh Venus
C[C@@H]1CN([C@H](C)CO)C(=O)c2cccc(NS(=O)(=O)c3ccc(F)cc3)c2O[C@@H]1CN(C)Cc1ccc(C(=O)O)cc1,18.1,8.4
O=C(c1cccc(F)c1)N1CCCCN2[C@H](CO)[C@@H](c3ccc(C#CC4(O)CCCC4)cc3)[C@@H]2C1,-7.8,2.0
CC(C)NC(=O)N(C)C[C@H]1Oc2ccc(N(C)C)cc2CC(=O)N([C@@H](C)CO)C[C@H]1C,3.5,0.1
O=C(C[C@@H]1CC[C@H](NC(=O)c2ccc(F)cc2)[C@@H](CO)O1)NCCc1ccccc1,-1.8,-6.3
CO[C@@H](CN(C)S(=O)(=O)c1cn(C)cn1)[C@H](C)CN(C(=O)Nc1ccc(C(F)(F)F)cc1)[C@@H](C)CO,10.7,16.5
CN1C(=O)c2cc(NC(=O)NC3CCCC3)ccc2OC[C@@H]2O[C@@H](CC(=O)O)CC[C@@H]21,-1.7,9.3
N#Cc1ccc(-c2ccc([C@H]3[C@@H](CO)N4C(=O)CN(C(=O)Cc5ccccc5)C[C@@H]34)cc2)cc1,5.2,-2.0
CO[C@@H]1CN(C)C(=O)c2cc(NS(=O)(=O)c3ccccc3)ccc2OC[C@H](C)N(Cc2nccs2)C[C@H]1C,-10.6,-4.0
CN1C(=O)c2cc(NC(=O)Nc3ccccc3F)ccc2OC[C@@H]2O[C@H](CC(=O)NCc3ccc(-c4ccccc4)cc3)CC[C@H]21,-11.4,-1.4
CC(C)NC(=O)N(C)C[C@@H]1Oc2c(NS(C)(=O)=O)cccc2C(=O)N([C@H](C)CO)C[C@@H]1C,12.8,7.5
COCC(=O)N1[C@H](C#N)[C@H](c2ccc(C3=CCCCC3)cc2)[C@H]1CO,-9.7,-4.8
Cc1ccc(S(=O)(=O)N(C)C[C@@H]2Oc3ncc(-c4ccccc4)cc3C(=O)N([C@@H](C)CO)C[C@H]2C)cc1,-32.5,-20.5
COc1ccc(S(=O)(=O)N(C)C[C@H]2OCCCC[C@@H](C)Oc3ccc(NC(=O)Nc4ccc(C(F)(F)F)cc4)cc3C(=O)N([C@@H](C)CO)C[C@@H]2C)cc1,-6.3,-3.6
C[C@@H]1CCCCO[C@H](CN(C)S(=O)(=O)c2cn(C)cn2)[C@H](C)CN([C@H](C)CO)C(=O)c2cc(NS(=O)(=O)c3ccc(F)cc3)ccc2O1,11.1,5.0
CO[C@H]1CN(C)C(=O)c2cc(NC(=O)C3CC3)ccc2OC[C@@H](C)N(C(=O)CN(C)C)C[C@@H]1C,-7.3,-9.7
COc1cccc(S(=O)(=O)Nc2ccc3c(c2)[C@H]2C[C@H](CC(=O)O)O[C@H](CO)[C@H]2O3)c1,14.0,1.8
C[C@H](NC(=O)[C@H]1[C@H](CO)[C@H]2Cn3c(cccc3=O)[C@H]2N1CCC(F)(F)F)c1ccccc1,3.0,0.4
COCC(=O)Nc1ccc2c(c1)OC[C@@H](C)N(Cc1cc(F)ccc1F)C[C@H](C)[C@@H](OC)CN(C)C2=O,-12.3,-9.8
CCN1[C@@H]2Cn3c(ccc(-c4cccc(C(=O)N(C)C)c4)c3=O)[C@H]1[C@@H](C(=O)OC)[C@@H]2CO,12.1,13.7
COc1ccc(NC(=O)Nc2ccc3c(c2)C(=O)N([C@@H](C)CO)C[C@H](C)[C@H](CN(C)C(=O)Nc2ccc(OC)cc2)O3)cc1,-2.0,4.6
C[C@@H](NC(=O)[C@H]1[C@H](CO)[C@H]2Cn3c(cccc3=O)[C@H]2N1CC1CCCCC1)c1ccccc1,-19.7,-20.6
CCCNC(=O)C[C@@H]1C[C@@H]2c3cc(NC(=O)NC4CCCC4)ccc3O[C@@H]2[C@@H](CO)O1,10.7,5.7
C[C@H](CO)N1C[C@H](C)[C@@H](CN(C)Cc2ccc3c(c2)OCO3)Oc2cc(C#CCN(C)C)ccc2S1(=O)=O,?,.
C[C@H]1CN([C@@H](C)CO)C(=O)c2cc(NC(=O)c3ccncc3)ccc2O[C@H]1CN(C)S(=O)(=O)c1cccs1,19.7,15.7
COCCNC(=O)C[C@@H]1C[C@H]2c3cc(NS(=O)(=O)c4ccccc4)ccc3O[C@H]2[C@H](CO)O1,4.4,6.8

# 5 entries already listed, arranged by heavy-atom count, smallest number first:
SMILES,Vaccinia inh,Vaccinia inh Venus
CN1C(=O)c2cc(NC(=O)NC3CCCC3)ccc2OC[C@@H]2O[C@@H](CC(=O)O)CC[C@@H]21,-1.7,9.3
CC(C)NC(=O)N(C)C[C@@H]1Oc2c(NS(C)(=O)=O)cccc2C(=O)N([C@H](C)CO)C[C@@H]1C,12.8,7.5
CO[C@H]1CN(C)C(=O)c2cc(NC(=O)C3CC3)ccc2OC[C@@H](C)N(C(=O)CN(C)C)C[C@@H]1C,-7.3,-9.7
C[C@H](CO)N1C[C@H](C)[C@@H](CN(C)Cc2ccc3c(c2)OCO3)Oc2cc(C#CCN(C)C)ccc2S1(=O)=O,?,.
CN1C(=O)c2cc(NC(=O)Nc3ccccc3F)ccc2OC[C@@H]2O[C@H](CC(=O)NCc3ccc(-c4ccccc4)cc3)CC[C@H]21,-11.4,-1.4

# Later entries:
SMILES,Vaccinia inh,Vaccinia inh Venus
C[C@H]1CN([C@@H](C)CO)C(=O)c2cccc(N(C)C)c2O[C@@H]1CN(C)Cc1ccc(Oc2ccccc2)cc1,-17.7,-19.2
C[C@@H]1CN([C@H](C)CO)C(=O)c2cc(NC(=O)Nc3cccc4ccccc34)ccc2O[C@@H]1CN(C)C(=O)Nc1ccc(F)cc1,12.5,6.6
C[C@@H]1CN([C@@H](C)CO)C(=O)c2cc(NC(=O)Nc3ccccc3)ccc2O[C@H]1CN(C)C(=O)NC1CCCCC1,6.8,3.1
O=C(C1CCC1)N1CC(=O)N2[C@H](C1)[C@H](c1ccc(Br)cc1)[C@@H]2CO,5.8,8.8
CO[C@H]1CN(C)C(=O)c2ccc(NC(=O)NC(C)C)cc2OC[C@H](C)N(CC2CC2)C[C@@H]1C,-2.8,-6.0
O=C(C[C@@H]1C=C[C@@H](NS(=O)(=O)c2ccc(F)cc2)[C@H](CO)O1)NCCN1CCCCC1,-1.2,1.7
CCC(=O)N(C)C[C@H]1Oc2cc(-c3ccccc3OC)ccc2S(=O)(=O)N([C@H](C)CO)C[C@H]1C,6.3,2.8
COCC#Cc1ccc2c(c1)O[C@H](CN(C)Cc1ccncc1)[C@@H](C)CN([C@@H](C)CO)S2(=O)=O,-19.6,-19.3
COc1ccccc1C(=O)Nc1ccc2c(c1)OC[C@@H](C)NC[C@H](C)[C@@H](OC)CN(C)C2=O,-5.0,-0.9
C[C@@H]1CCCCO[C@H](CN(C)C(=O)Nc2ccc(C(F)(F)F)cc2)[C@H](C)CN([C@@H](C)CO)C(=O)c2cc(NS(=O)(=O)c3cn(C)cn3)ccc2O1,10.7,-5.1
C[C@H](CO)N1C[C@H](C)[C@H](CN(C)Cc2ccncc2)OCCCC[C@H](C)Oc2ccc(NS(=O)(=O)c3ccc(Cl)cc3)cc2C1=O,?,.
COc1ccc(CN(C)C[C@@H]2OCCCC[C@H](C)Oc3ccc(NS(=O)(=O)c4ccc(F)cc4)cc3C(=O)N([C@H](C)CO)C[C@H]2C)cc1,?,.
COc1ccccc1C#Cc1ccc([C@@H]2[C@@H](C#N)N(C(=O)C3CC3)[C@@H]2CO)cc1,-4.5,-2.8
Cc1ccc(S(=O)(=O)N(C)C[C@@H]2Oc3ncc(Br)cc3C(=O)N([C@@H](C)CO)C[C@H]2C)cc1,-7.8,-1.1
O=C(C[C@@H]1CC[C@@H]2[C@H](COC[C@H](O)CN2CCc2ccccc2)O1)NCCCN1CCOCC1,1.3,-4.4
COc1ccc(CN(C)C[C@H]2OCCCC[C@H](C)Oc3ccc(NC(=O)NC4CCCCC4)cc3C(=O)N([C@@H](C)CO)C[C@@H]2C)cc1,?,.
O=C(C[C@@H]1CC[C@H]2[C@@H](COC[C@H](O)CN2CC2CCCCC2)O1)NCc1ccc(Cl)cc1,5.5,2.4
Cc1noc(C)c1S(=O)(=O)Nc1ccc2c(c1)C(=O)N([C@@H](C)CO)C[C@H](C)[C@H](CN(C)CC1CCCCC1)OCCCC[C@H](C)O2,-33.9,-27.8
CCCC#Cc1ccc([C@@H]2[C@@H](CO)N3C(=O)CN(S(=O)(=O)c4ccccc4C)C[C@@H]23)cc1,-24.2,-23.1
C[C@@H]1CN([C@H](C)CO)C(=O)c2cc(Br)cnc2O[C@H]1CN(C)C(=O)Nc1ccc2c(c1)OCO2,5.5,8.9
COC(=O)N(C)C[C@@H]1OCc2cn(nn2)CCCC(=O)N([C@H](C)CO)C[C@H]1C,11.2,14.0
COc1ccc(NC(=O)N2C[C@@H](O)COC[C@@H]3O[C@H](CC(=O)NC4Cc5ccccc5C4)CC[C@H]32)cc1,13.1,-0.1
C[C@@H]1CN([C@H](C)CO)C(=O)c2cccc(NC(=O)c3ccncc3)c2O[C@@H]1CN(C)C(=O)Nc1ccc(C(F)(F)F)cc1,5.4,-3.4
COCC(=O)Nc1ccc2c(c1)C(=O)N(C)C[C@H](OC)[C@H](C)CN(Cc1ccccc1)[C@@H](C)CO2,-3.0,6.5
